Screens (PubChem)
gsp agonist: gsp mutant agonism; gsp mutant cells, cAMP HTRF, 30 min; control for the full effect not named in the record; Potency, µM (top dose mostly 76.9 µM), for the others: at the top dose activation (cAMP increase), most hits filed as activators; hit rate 0.13% among 340,000; active = well fitted activation curve with a large enough effect; inconclusive = small, poorly fitted or top-dose-only effect, or another doubt; inactive = no such curve, though single readings can be large or run the other way; cell line not stated here;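 note: phosphodiesterase inhibitor Ro 20-1724 added with compounds to block cAMP breakdown; potency is the fitted concentration of half-maximal effect; nearly all actives have a fitted effect of over 60% in size; about a fifth of the inactives were tested at one dose only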
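Cells stably selected in G418 were plated at 2000/well, grown 16-24 hr, then given compounds in DMSO with the PDE inhibitor […] (300 uM solution added) for 30 min at 37C; cAMP was read by HTRF.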
TRPV1 potentiator: potentiators of human vanilloid receptor 1 (TRPV1) | TRPV1-expressing cells, Fluo-8 calcium influx, capsaicin EC20 potentiation; host cell line not named in the record; control for the full effect not named in the record | potentiation, % at 8.33 µM | hit rate 0.02% among 320,000; active means potentiation above 80%; inconclusive means 30% to 80%; inactive means below 30%; note: 0% is about no effect
Target sequence (Q8NER1 whole entry, looked up): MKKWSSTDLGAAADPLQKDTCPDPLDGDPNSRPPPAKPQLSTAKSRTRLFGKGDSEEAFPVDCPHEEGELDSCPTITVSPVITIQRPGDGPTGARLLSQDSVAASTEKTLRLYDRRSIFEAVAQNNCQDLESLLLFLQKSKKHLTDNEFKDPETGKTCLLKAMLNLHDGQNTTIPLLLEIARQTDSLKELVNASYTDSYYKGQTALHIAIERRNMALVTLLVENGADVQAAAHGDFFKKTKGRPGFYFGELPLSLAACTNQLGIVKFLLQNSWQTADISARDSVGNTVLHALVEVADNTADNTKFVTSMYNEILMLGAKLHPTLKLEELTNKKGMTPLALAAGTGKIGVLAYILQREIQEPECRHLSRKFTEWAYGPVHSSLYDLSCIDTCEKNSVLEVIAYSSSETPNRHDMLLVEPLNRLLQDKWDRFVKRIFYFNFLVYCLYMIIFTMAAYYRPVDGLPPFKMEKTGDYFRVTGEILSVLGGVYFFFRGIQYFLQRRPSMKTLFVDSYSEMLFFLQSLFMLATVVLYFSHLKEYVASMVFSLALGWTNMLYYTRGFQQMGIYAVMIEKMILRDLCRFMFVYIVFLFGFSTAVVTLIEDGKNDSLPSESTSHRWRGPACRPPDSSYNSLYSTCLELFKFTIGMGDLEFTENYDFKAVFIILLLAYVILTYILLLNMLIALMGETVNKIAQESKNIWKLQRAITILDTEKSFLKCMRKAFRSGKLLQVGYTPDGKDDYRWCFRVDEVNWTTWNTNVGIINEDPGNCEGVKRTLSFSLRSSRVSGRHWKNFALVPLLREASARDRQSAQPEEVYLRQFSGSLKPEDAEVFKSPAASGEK
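TRPV1-expressing cells were cultured overnight at 35.5C and loaded with Fluo-8 calcium dye for 40 to 90 min at room temperature. After a 10 s baseline, compound was added and calcium influx was read kinetically for 3 min (ex 480/em 520 nm).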
Sfp PPTase inh: blocks B. subtilis Sfp PPTase activity; Q9F4F7; Biochemical Sfp PPTase activity, qHTS; Potency, µM, for inactives: max response, negative = inhibition, usual class: inhibitors; hit rate 3.5% among 310,000; AID 1490; active = well fitted inhibition curve with a large enough effect; inconclusive = small, poorly fitted or top-dose-only effect, or another doubt; inactive = no such curve, though single readings can be large or run the other way;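 note: the enzyme is Sfp with the accession as filed and its product quenches rhodamine fluorescence; potency is the fitted concentration of half-maximal effect; 0% = enzyme reaction without inhibitor and -100% = no enzyme wells; top concentration of the series not given in the record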
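Fluorescence-quenching assay: 15 nM Sfp-PPTase preincubated 15 min at room temperature with compound, then 5 uM rhodamine-CoA and 12.5 uM BHQ-2-labelled YbbR peptide added. Fluorescence (ex 525/em 598 nm) read at start and after 30 min; difference gives rate.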
gsp antagonist: gsp mutant antagonism. hit rate 0.4% among 340,000. gsp-mutant cells, cAMP HTRF, 30 min; control for the full effect not named in the record. Potency, µM (series often up to 76.9 µM), for inactives: top-dose activity change, negative = inhibition, hits mostly inhibitors; active = falling curve of any shape with a large fitted effect; inconclusive = falling curve, mostly with a smaller effect; inactive = flat or rising curve; cell line not stated here;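 note: intracellular cAMP measured with PDE inhibitor Ro 20-1724 present during compound exposure; potency is the fitted concentration of half-maximal effect; % is set by controls: 0 for no effect and ±100 for the full control effect; nearly all actives have a fitted effect of over 65% in size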
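Cells in G418 medium, seeded 16-24 h, 37C; buffer exchange to DPBS + 1 mM CaCl2, 0.5 mM MgCl2, 0.05% BSA; cpds in DMSO + […] (300 uM stock), 30 min 37C; HTRF cAMP detection.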
Menin MLL FP FL: inhibitors of human menin-MLL interaction, wild-type MLL peptide | Fluorescence polarization, fluorescein-MLL peptide displacement from menin | FP activity change, % at 61.4 µM | 290,000 tested, under 10 active; inconclusive = falling polarisation curve, or a change in total fluorescence; inactive = total fluorescence flat and polarisation flat or rising; no compound was filed as active; the % refers to the polarisation; negative = inhibition;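 note: % of control where 0% means no effect; inhibitors lower the polarisation; unlabelled MLL peptide was the positive control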
ClpP mod: qHTS Assay for Activators of ClpP. Potency, µM (highest dose often 57.5 µM), for the others: at the highest dose activity change, negative = active. ATP-dependent Clp protease proteolytic subunit (Bacillus subtilis (strain 168)), P80244. hit rate 1.9% among 340,000. purified B. subtilis ClpP, FRET peptide cleavage, 20 min; active = well fitted falling curve with a large enough effect; inconclusive = small, poorly fitted or top-dose-only effect; inactive = no such curve, though single readings can be large or run the other way; note: potency is the fitted concentration of half-maximal effect; the source files actives as falling curves though it sought activators and does not explain the sign; nearly all actives have a fitted effect of over 65% in size; many hits overshoot -100%
Target sequence (P80244 whole entry, looked up): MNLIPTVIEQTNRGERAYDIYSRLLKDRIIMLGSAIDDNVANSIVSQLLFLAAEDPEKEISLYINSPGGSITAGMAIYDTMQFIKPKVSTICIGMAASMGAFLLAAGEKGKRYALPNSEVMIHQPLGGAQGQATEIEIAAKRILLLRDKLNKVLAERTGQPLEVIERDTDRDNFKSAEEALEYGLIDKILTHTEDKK
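Purified B. subtilis ClpP, 10 microg/mL final in Tris/HCl pH8 with KCl, BSA, glycerol and Tween-20, cleaved an Abz/nitrotyrosine-quenched decapeptide. Fluorescence (ex 320, em 430) was read at 0 and 20 min at room temperature. Delta was normalized to 5.8 microM ADEP and DMSO/no-enzyme controls.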
TRPML1 inh: blocks the human TRPML1 channel; activity change, negative = inhibition, % (no concentration beside the values); TRPML1-inducible cells, Ca2+ dye fluorescence, FDSS; hits give low values; inhibition of EC80 agonist-evoked calcium signal; hit rate 0.02% among 390,000; Q9GZU1; in the data active means activity change below about -50%; inconclusive means about -30% to -50%; inactive means above about -30%;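 note: stimulus is agonist 54-4 at its EC80 concentration; % is set by controls: 0 for no effect and ±100 for the full control effect; compound concentration not given in the record; the text of the record puts the active cut at -80%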
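TRPML1-DL cells, Tet-induced overnight (~16 h, 37 °C) at 1,500 cells/well, were loaded with Ca8 no-wash dye plus quencher for 45-90 min at room temperature. Compounds were pinned during FDSS kinetic reading; agonist 54-4 at EC80 (4 uM final) then added.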
* = called active by the depositor; u = inconclusive; x = not tested or not shown; & = joins results of further samples; [ ] = another dose, or the depositor's remark.

compound,Sfp PPTase inh,TRPV1 potentiator,gsp antagonist,ClpP mod,gsp agonist,TRPML1 inh,Menin MLL FP FL
Cc1ccc(CCNC(=O)CN2C(=O)COc3ccc(S(=O)(=O)N4CCCCC4)cc32)cc1,7.5%,-1.2,-14.8%,-1.3%&2.3%,u,-5.8&14.8,x
COc1ccc(/C=N/NC(=O)C(C)n2cnc3ccccc3c2=O)cc1OC (centres undefined),7.5%,10.2,13.1%,-5.0%,-2.1%[15.4 µM],-2.4,1.2
Cc1ccc(C(=O)Nc2nnc(SCC(=O)N3CCCc4ccccc43)s2)cc1,19.4%,4.2,-25.8%,-4.7%,13.4%,-8.9,1.0
O=C(NCC(c1cccs1)N1CCOCC1)c1ccc(Cl)c(S(=O)(=O)N2CCOCC2)c1 (centres undefined),1.4%,-23.1,-4.7%,x,10.8%[15.4 µM],-1.2,2.5
O=C(c1cc([N+](=O)[O-])ccc1Cl)N1CCN(c2ccc(F)cc2)CC1,0.4%,-0.6,3.4%,1.8%,-68.4%[inhibitor],-12.0,4.1
FC(F)Oc1ccc(NC(=S)NCc2ccccc2)cc1,11.4%,-0.7,0.3%,-3.2%,1.3%,18.9,9.5
CC(=O)NC1=NN(C(C)=O)C2(S1)C(=O)N(C(C)=O)c1ccc(C)cc12 (centres undefined),7.3%,0.8,11.2%,u,-5.5%[15.4 µM],-10.3,1.2
O=C(CSc1nnc(Cc2cc(=O)[nH]c(=O)[nH]2)n1-c1ccc(F)cc1)NC1CCCC1,-8.0%,x,6.9%,0.2%,9.5%,-7.4,-7.0
CCN(CC)CCn1c(NC(=O)c2ccc(C)cc2)nc2ccccc21,13.4%,-7.8,-2.1%,-1.1%,7.9%[15.4 µM],5.8,-1.3
COCCn1c(N)c(N(Cc2ccccc2)C(=O)c2cc(=O)[nH]c3ccccc23)c(=O)[nH]c1=O,x,x,-16.1%,-15.0%,-1.3%,-3.3,x
Cc1ccnc(SCc2ccc(C(=O)O)cc2)n1,7.0%,-5.0,-3.4%,x,20.5%,13.2,-3.4
Cc1noc(C)c1CCC(=O)O,18.0%,-1.8,1.5%,x,-18.9%,-2.1,0.2
O=C(NN1C(=O)c2ccccc2NC1c1ccoc1)c1ccccc1 (centres undefined),-0.2%,-3.0,5.4%,-5.3%,-53.0%,-7.3,-6.5
CCOC(=O)C1=C(c2ccccc2)Nc2nc(C)nn2C1c1cccc(OC)c1OC (centres undefined),14.8%,-1.9,-1.4%,-0.8%,12.7%,-2.6,3.8
CCCC(c1nnnn1C(C)(C)CC)N1CCN(C2CCCC2)CC1 (centres undefined),6.3%,2.4,7.2%,-1.2%,u,-7.1,0.4
C(=N\N1CCN(c2ccccn2)CC1)/C1=C(N2CCOCC2)C(=C/c2ccccc2)/CC1,-5.3%,-11.9,-4.3%,x,3.6%,-2.7,-0.8
CC(=O)c1c(C)[nH]c(C(=O)OCc2ccccc2F)c1C,-8.7%,-8.0,-12.4%,-1.4%,1.2%,10.5,5.8
COC(=O)C1C(c2ccc(OC)cc2)NC(=O)NC1(O)C(F)(F)Cl (centres undefined),17.0%,3.0,9.1%,x,10.5%,1.2,0.0
CC(C)CNC(=O)NC(=O)COc1c(F)c(F)cc(F)c1F,8.0%,-19.6,2.8%,0.9%,5.6%,-14.2,1.4
O=C(CN(C(=O)c1ccccc1Cl)N1C(=O)CCCC1=O)c1ccc(Cl)cc1,18.2%,-9.5,2.1%,0.3%,6.4%,13.2,-0.9
CC(C)=C1C2CCC1C1C(=O)N(c3ccc(C)c(C)c3)C(=O)C21 (centres undefined),9.0%,-13.0,-2.1%,-0.7%,12.5%,2.7,3.1
CCN(CC)S(=O)(=O)c1ccc(N/N=C/c2ccccc2OCC(=O)O)c([N+](=O)[O-])c1,-5.5%,0.1,7.0%,x,28.6%,18.1,-2.4
CC(C)C[C@H](NC(=O)NCCc1ccc(Cl)cc1)C(=O)O,7.8%,2.7,-3.1%,-0.4%,u,-2.2,2.2
COc1cccc(SCc2noc(C(=O)NCc3ccccc3)c2C(=O)NCc2ccccc2)c1,18.2%,u,-4.6%,-2.0%,x,10.3,-1.0
CCN1C(=O)[C@@H]2[C@H](C1=O)[C@@H]1C(=O)Nc3ccccc3C(=O)N1[C@@H]2c1ccc(OC)cc1,x,-42.0,12.8%,-3.5%,x,68.9,x
O=C(O)c1ccc(-n2nc(C(F)(F)F)c3c2-c2ccoc2CC3)cc1,-9.1%,-8.5,-8.7%,-5.3%,-29.8%,4.0,2.6
Cc1ccc2[nH]c(=O)c(CN(Cc3ccco3)C(=O)CN3CCCC(C)C3)cc2c1 (centres undefined),4.1%,-5.3,x,x,4.6%[15.4 µM],-9.5,-0.2
O=C1Nc2ccccc2SC1c1ccccc1 (centres undefined),16.8%,-9.5,5.1%,1.9%,-5.1%,-22.7,13.0
O=C(CNC(=O)c1ccccc1Cl)N/N=C/c1ccc([N+](=O)[O-])s1,24.8%,1.0,4.9%,x,7.4%[15.4 µM],-5.5,1.1
Cc1cccc(NC(=O)CSc2nnc3ccc(-c4cccnc4)nn23)c1,x,x,x,-1.6%,17.1%,-0.4,x
COc1cccc(CNCc2cccc(OC)c2O)c1O,x,x,-3.3%,-0.4%,1.4%,-11.1,x
O=C1[C@H](Oc2ccccc2)[C@@H](c2ccccc2)N1c1ccncc1,x,x,-7.0%,-1.8%,x,-12.1,x
CCCC(=O)N(c1ccc2oc(C)c(C(C)=O)c2c1)S(=O)(=O)c1ccc(C(=O)O)cc1,12.2%,-12.9,4.6%,x,20.6%,-14.3,-2.6
CC(C)(C)C(=O)Nc1ccc(N2CCCC2)cc1,-0.2%,4.4,-6.2%,1.2%,0.7%,-4.9,0.3
CN1CCN(C(=O)C(C(=O)c2ccc(F)cc2)n2ccccc2=O)CC1 (centres undefined),8.4%,-1.4,12.1%,1.5%,5.2%,-14.5,0.8
CCSC1=C(C#N)C2(CCCCC2)C(C#N)=C(N)N1,5.2%,11.5,1.5%,4.5%,15.3%,10.8,2.6
c1ccc2nc(-c3ccc(N4CCOCC4)cc3)ccc2c1,u,27.5,5.2%,106.5%,20.4%,-4.0,3.6
Cc1nnc(NC(=O)c2ccc(F)c(S(=O)(=O)N3CCOCC3)c2)s1,x,x,-24.9%,-2.3%,-35.6%[inhibitor],-13.9,x
CN(C)c1ccnc2sc(C(=O)c3ccccc3)c(N)c12,4.3%,-1.4,-15.0%,0.6%,u,29.3,13.5
CCOCCCNC(=O)NC12CC3CC(CC(C3)C1)C2,10.2%,22.4,-30.3%,-2.7%,0.0%,-2.7,0.5
COc1ccc2nc(NC3=NC(C(=O)Nc4ccc(C)cc4)CC(=O)N3)nc(C)c2c1 (centres undefined),0.2%,0.8,x,x,x,x,4.9
CC(C)c1cc(NCc2ccccn2)n2c(nc3ccccc32)c1C#N,15.4%,-9.7,-15.1%,x,5.8%[15.4 µM],6.3,0.1
Cc1ccc([N+](=O)[O-])cc1-c1ccc(/C=N/NC(=O)CN2CCOCC2)o1,2.9%,x,-15.1%,2.8%,u,15.3,-0.4
COc1cc(OC)cc(C(=O)N2CCN(C3CCC(C)CC3)CC2)c1 (centres undefined),x,x,6.3%,x,20.1%,-4.4,x
CC(C)CNC(=S)NNC(=O)CC(C)O (centres undefined),-0.1%,-5.8,x,x,11.4%[15.4 µM],-5.0,-0.6
O=C(COC(=O)c1cc(S(=O)(=O)N2CCOCC2)ccc1F)NC1CC1,x,x,5.2%,-3.1%,-28.8%[15.4 µM],3.9,x
CN1CCN(C(=O)CCC(=O)c2ccc(F)cc2)CC1,20.3%,-0.3,2.9%[15.4 µM],-3.3%,-19.7%,-12.0,0.3
COc1cc(C(=O)N2CCN(C(=O)C(Cc3cc(C)ccc3C)NC(C)=O)CC2)cc(OC)c1OC (centres undefined),3.6%,1.0,-0.1%,-0.4%,-36.3%[inhibitor],-12.0,2.9
CCOC(=O)C1=C(C#N)C(C(=O)OCC)c2ncccc21 (centres undefined),x,x,x,3.4%,-2.6%,-1.1,x
CC(C)=C1C2CCC1C1C(=O)N(c3ccc4c(c3)OCO4)C(=O)C21 (centres undefined),4.4%,4.1,-16.0%,-0.4%,-16.9%,1.6,4.7

(further entries)
compound,Sfp PPTase inh,TRPV1 potentiator,gsp antagonist,ClpP mod,gsp agonist,TRPML1 inh,Menin MLL FP FL
CC(C)c1ccc(NC(=O)CN2C(=O)COc3ccc(S(=O)(=O)N4CCOCC4)cc32)cc1,7.6%,0.6,5.3%,-0.8%&0.8%,2.8%,5.3&-19.1,x
COC(=O)CNC(=O)c1ccc(C)s1,-3.4%,7.2,20.5%,-0.5%,0.0%,2.4,-0.2
Cc1ccc(CNC(=O)CCC2CCCN(Cc3ccc4cccc(F)c4n3)C2)o1 (centres undefined),-7.8%,7.2,-7.8%,x,3.9%[15.4 µM],-9.6,1.5
O=C(CN1CCN(C(=O)c2ccco2)CC1)Nc1cc(S(=O)(=O)N2CCCC2)ccc1Cl,x,x,x,-1.0%,-1.3%,-4.5,x
Cn1nc([N+](=O)[O-])c2c(-c3nc4ccccc4s3)c(N)n(C3CCCCC3)c2c1=O,13.6%,21.9,4.4%,0.0%,u,-1.5,-0.3
NC(=O)CCN(C1CCCCC1)S(=O)(=O)c1cccc2nsnc12,22.1%,-0.6,7.2%,x,-8.0%,12.2,u
COc1ccc(CCNC(=O)c2ccc(OCC(=O)N3CCOCC3)c(OC)c2)cc1,x,-2.2,-4.6%,-1.7%,-30.5%[inhibitor],-11.7,x
CCc1nn2cc(C(=O)c3cc(C)ccc3O)cnc2c1-c1ccc(F)cc1,-0.5%,-13.7,-14.6%,0.5%,1.1%[15.4 µM],-3.9,-0.2
C[C@H](CO)N1C[C@H](C)[C@H](CN(C)CC2CCCCC2)Oc2ccc(NS(=O)(=O)c3ccc(F)cc3)cc2CC1=O,x,x,-16.9%,-1.8%,x,0.8,x
CN(CC(=O)NCCc1ccc(S(N)(=O)=O)cc1)Cc1ccc(Cl)cc1Cl,5.2%,-3.2,-0.1%,0.0%,-7.9%[15.4 µM],0.5,-0.1
